Marburg entry inh = qHTS for inhibitors of binding or entry into cells for Marburg Virus. Marburg virus pseudotyped entry inhibition, cell reporter; control for the full effect not named in the record; about a third of the inactives were read at about 46 µM. Potency, µM (doses to about 37.8 µM), for inactives: top-dose activity change, negative = inhibition, most hits filed as inhibitors. 300,000 tested, 1.8% active; active = well fitted inhibition curve with a large enough effect; inconclusive = small, poorly fitted or top-dose-only effect, or effect the other way; inactive = flat fitted curve, though single readings scatter; tested in HEK293 cells; about a fifth of its hits are not listed in these tables; further: on the % scale 0 is the no-effect control and ±100 the full control effect; luciferase read-out
SARS PLpro yeast = qHTS of Yeast-based Assay for SARS-CoV PLP. S. cerevisiae expressing SARS-CoV PLpro, growth rescue; control for the full effect not named in the record. Potency, µM (titrated, usually from 32.9 µM), inactives show at the highest dose activity, positive = growth rescue. 330,000 tested, 0.19% active; further: 0% is about no effect; nearly all actives have a fitted effect of over 55% in size; growth read by luminescence after 48 h
Cruzain inh Det = qHTS Assay for Promiscuous and Specific Inhibitors of Cruzain (with detergent) | Cruzipain (Trypanosoma cruzi), P25779 | Potency, µM, for the others: max response, negative = inhibition, hits mostly inhibitors | 200,000 tested, 0.43% active | AID 1478, 2009 | purified cruzain, Z-FR-AMC fluorescence, 0.01% Triton; active means well fitted curve in the direction sought with a large enough effect; inconclusive means small, poorly fitted or top-dose-only effect, or another doubt; inactive means no such curve, though single readings can be large; an effect the other way counts as inactive or inconclusive;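 further: plate controls were neutral wells for no effect and buffer without enzyme for full effect; nearly all actives have a fitted effect of over 40% in size; top concentration of the series not given in the record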
Target sequence (P25779 123-467 limits assumed): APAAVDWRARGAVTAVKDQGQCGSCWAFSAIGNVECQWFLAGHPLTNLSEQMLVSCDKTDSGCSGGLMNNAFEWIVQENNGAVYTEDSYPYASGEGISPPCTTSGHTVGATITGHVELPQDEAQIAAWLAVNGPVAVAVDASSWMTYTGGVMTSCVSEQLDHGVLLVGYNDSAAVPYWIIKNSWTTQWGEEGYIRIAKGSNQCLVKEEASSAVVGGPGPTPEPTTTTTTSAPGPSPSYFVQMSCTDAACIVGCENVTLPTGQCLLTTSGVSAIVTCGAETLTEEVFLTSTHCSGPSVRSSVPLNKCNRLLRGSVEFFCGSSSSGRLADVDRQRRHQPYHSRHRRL
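Purified cruzain (1.5 nM final) was preincubated with compounds for 15 min at room temperature in 100 mM sodium acetate pH 5.5, 5 mM DTT, 0.01% Triton X-100. Reaction started with 2 uM Z-FR-AMC; AMC fluorescence change over 60 s gave activity.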
RE007 growth inh = qHTS Assay for Inhibitors of the HIV-1 protein Vpr; S. pombe RE007 Vpr strain, BacTiter-Glo ATP luminescence, 24 h; control for the full effect not named in the record; Potency, µM (top dose mostly 92.2 µM), for inactives: top-dose activity change, negative = less growth; 360,000 tested, 0.21% active; AID 651644, 2012; active = well fitted falling curve with a large enough effect; inconclusive = small, poorly fitted or top-dose-only effect; inactive = no such curve, though single readings can be large or run the other way;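 further: on the % scale 0 is the no-effect control and ±100 the full control effect; nearly all actives have a fitted effect of over 50% in size; the assay follows cell death caused by Vpr and the record does not say whether a fall means rescue or toxicity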
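Fission yeast strain RE007, carrying one chromosomally integrated HIV-1 vpr copy, was seeded at OD 0.01 in PMG+AL medium with 23 nL pinned compound. After 24 h at 30 °C and 99% humidity, viability was read by BacTiter-Glo luminescence.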
NS1 function inh = qHTS Assay for Inhibitors of Influenza NS1 Protein Function | Potency, µM (highest dose often 46.1 µM), for inactives: at the top dose activity, positive = more growth | AID 2326, 2010 | S. cerevisiae slowed by influenza A NS1, growth recovery by OD600 | 270,000 tested, 0.4% active; further: actives are rising curves; nearly all actives have a fitted effect of over 50% in size
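In this qHTS, NS1 from influenza A is expressed in budding yeast, where it slows growth. Cells are switched from glucose to 2% galactose medium (pH 6.0, -URA), treated with compound, and growth recovery is read at OD600.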
Cruzain inh noDet = qHTS Assay for Promiscuous and Specific Inhibitors of Cruzain (without detergent) | Cruzipain (Trypanosoma cruzi), P25779 | purified cruzain, Z-FR-AMC fluorescence, no detergent | Potency, µM, for the others: max response, negative = inhibition, most hits filed as inhibitors | 200,000 tested, 2.3% active | AID 1476, 2009; active means well fitted curve in the direction sought with a large enough effect; inconclusive means small, poorly fitted or top-dose-only effect, or another doubt; inactive means no such curve, though single readings can be large; an effect the other way counts as inactive or inconclusive;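 further: plate controls were enzyme without inhibitor for no effect and buffer without enzyme for full effect; nearly all actives have a fitted effect of over 40% in size; top concentration of the series not given in the record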
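Detergent-free condition (0.00005% Triton X-100) in acetate buffer pH 5.5 with DTT. 1.5 nM enzyme and compound were pre-mixed 15 min, then 2 uM Z-FR-AMC substrate added; reaction progress from fluorescence change between first and third reads (60 s).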
StopGo reporter = High Throughput Screening for Foot and Mouth Disease Virus Antivirals; human cells with a luciferase reporter of 2A StopGo recoding; control for the full effect not named in the record; Potency, µM (titrated, usually from 57.9 µM), inactives show top-dose signal change, negative = less light; 410,000 tested, 1.2% active; AID 1159524, 2015; active = well fitted falling curve with a large enough effect; inconclusive = small, poorly fitted or top-dose-only effect; inactive = no such curve, though single readings can be large or run the other way; tested in HEK293T cells; further: on the % scale 0 is the no-effect control and ±100 the full control effect; nearly all actives have a fitted effect of over 45% in size; luciferase light after 4 h
LASV entry inh = qHTS for Inhibitors of binding or entry into cells for Lassa Virus; Potency, µM (highest dose often 37.9 µM), inactives show at the highest dose activity change, negative = inhibition, usual class: inhibitors; Lassa virus pseudotype entry inhibition, cell reporter; control for the full effect not named in the record; AID 540256, 2011; 300,000 tested, 1.2% active; active means well fitted inhibition curve with a large enough effect; inconclusive means small, poorly fitted or top-dose-only effect, or effect the other way; inactive means flat fitted curve, though single readings scatter; tested in HEK293 cells; further: on the % scale 0 is the no-effect control and ±100 the full control effect; nearly all actives have a fitted effect of over 50% in size; luciferase read-out
An asterisk follows results filed as active; ? = inconclusive; . = not tested or not shown; & = joins results of further samples; [ ] = another dose, or the depositor's remark. Unless noted, the call rests on the fitted dose curve; in most records, active means well fitted rising curve with a large enough effect; inconclusive means small, poorly fitted or top-dose-only effect; inactive means no such curve, though single readings can be large or run the other way. Potency means the concentration at half of the fitted maximal effect.

no.	canonical_smiles	StopGo reporter	Cruzain inh noDet	LASV entry inh	Marburg entry inh	SARS PLpro yeast	NS1 function inh	RE007 growth inh	Cruzain inh Det
1	CC(C)[C@H](NC(=O)C1CCCC1)c1nc2ccccc2[nH]1	-9.2%	.	?	?	1.2%	.	203.7%	.
2	CC(C)C[C@H](NC(=O)c1[nH]cnc1C(=O)N[C@@H](C)c1ccccc1)C(=O)OCc1ccccc1	?	.	.	.	-0.3%	16.3%	7.5%	.
3	CC1C(=O)N2CCCc3cc(NC(=O)C(=O)NCCc4ccccc4)cc1c32 (configuration not stated)	4.6%	.	-21.7%	6.6%	-3.4%	.	8.1%	.
4	COc1ccc(C2c3cc(OC)c(OC)cc3CC(=O)N2c2cccc(C#N)c2)cc1 (configuration not stated)	-6.7%	?	12.1%[46.1 µM]	-1.1%[46.1 µM]	.	.	.	-4.3%
5	Cn1nc2c3ccccc3n(Cc3ccccc3)c2nc1=S	12.4%	.	28.1%[46.1 µM]	?	0.8%	-1.8%	1.5%	.
6	COc1ccc(N2CCN(C(=O)c3ccc(C)cc3)CC2)c([N+](=O)[O-])c1	-15.7%	5.6%	-2.3%	-27.1%	-20.3%	-6.0%	18.9%	-1.7%
7	COc1ccc(OC)c(NC(=O)c2cn(CC(C)C)c(=O)c3cc(OC)c(OC)cc23)c1	-28.1%	?	?	-50.5%[46.1 µM]	.	.	.	-7.7%
8	CCn1c(O)c(N=NC(=O)CNC(=O)Cc2ccccc2)c2ccccc21	-2.2%	.	10.5%[46.1 µM]	0.3%[46.1 µM]	-0.4%	-8.2%	12.7%	.
9	CC/C(=N\NC(=O)c1ccc(N2CCCC2=O)cc1)c1ccccc1	9.3%	.	.	11.2%[46.1 µM]	0.8%	12.4%	0.0%	.
10	N/C(=N\OCC(=O)Nc1ccccc1)c1nonc1N	17.5%	5.6%	4.2%	8.7%	-12.1%	8.5%	-2.8%	-2.0%
11	Nc1nc(-c2ccc(NC(=O)c3ccco3)cc2)cs1	-60.3%	.	?	5.01µM*	-5.7%	-0.5%	-23.7%	.
12	CCCCCn1c(=O)[nH]c2cc(C(=O)NCCN3CCC(C)CC3)ccc2c1=O	-26.4%	.	?	0.4%[46.1 µM]	-4.8%	-18.8%	-3.5%	.
13	CCc1ccc(S(=O)(=O)Nc2c(C)n(C)n(-c3ccccc3)c2=O)cc1	1.3%	.	-23.0%[46.1 µM]	-17.4%[46.1 µM]	1.0%	3.3%	8.2%	.
14	CCOC(=O)c1c(C)[nH]c(C)c1S(=O)(=O)NCC(=O)Nc1ccc(C)cc1C	30.5%[activator]	-2.8%	?	.	.	.	.	2.7%
15	Cc1ccc(C)c2sc(N)nc12	-12.0%	.	.	.	-0.6%	-1.5%	3.7%	.
16	CN(C)CCCNCCCNC(=O)c1ccccn1	-10.4%	3.6%	4.1%	-0.5%	1.6%	0.6%	-1.5%	1.3%
17	Oc1[nH]c2ccccc2c1N=Nc1nc(Nc2ccccc2)nc(N2CCOCC2)n1	?	.	.	.	1.0%	5.4%	-11.9%	.
18	COc1ccc(OC)c2c1sc(=NC(=O)C1COc3ccccc3O1)n2C (configuration not stated)	38.4%[activator]	.	6.2%	?	0.8%	2.7%	1.5%	.
19	CCCSc1nc2sc3c(c2c(=O)n1CC)CC(C)(C)OC3	-26.0%	.	?	1.1%	0.4%	0.6%	-17.2%	.
20	O=C1c2cccc3cccc(c23)C(=O)N1c1nccs1	-15.3%	6.5%	11.4%	?	4.8%	5.9%	7.8%	-4.0%
21	CCOC(=O)c1ccc(N=c2sc(C(=O)OC)cc(=O)n2-c2ccc(C(=O)OCC)cc2)cc1	20µM*	18.1%	-13.8%	-12.5%	1.7%	7.9%	-1.7%	-3.3%
22	O=C(CCC(=O)OCC(=O)c1cccc([N+](=O)[O-])c1)NC1CCCCC1	-8.0%	.	.	.	0.4%	-0.2%	-2.0%	.
23	O=C(CCN1CCN(CCO)CC1)Nc1ccc(Br)cc1	-1.2%&4.0%	1.5%	6.6%[46.1 µM]	.	-1.5%	2.4%	16.6%	-2.5%
24	CCOC(=O)N1CCN(C(=O)c2cc(OC)cc(OC)c2)CC1	.	-3.2%	1.2%	17.7%	4.0%	3.3%	6.1%	2.1%
25	CC(C)CC1(C(=O)NCCN2CCOCC2)C=CCN1C(=O)c1ccccc1 (configuration not stated)	28.0%	7.6%&-12.7%	-9.5%	26.7%	8.9%	-22.9%	0.8%	-2.6%&0.1%
26	CCc1noc(C)c1C(=O)OCC(=O)NCc1ccc(Cl)cc1	9.3%	.	29.8%[46.1 µM]	-4.9%[46.1 µM]	-6.1%	.	2.0%	.
27	Cc1ccc(C(=O)N/C(=C/c2ccco2)C(=O)NCCCn2ccnc2)cc1	55.0%[activator]	12.6%	-14.4%	-9.3%	12.6%	21.4%	-17.0%	-4.5%
28	COc1cc(OC)cc(C(=O)Nc2ccc3c(c2)N(C2CCCC2)C(=O)c2ccccc2S3)c1	-20.6%	6.7%	?	.	.	.	.	4.3%
29	c1cn2cc(CN3CCOCC3)nc2s1	8.7%	-0.8%	7.5%	1.7%	-6.9%	2.5%	7.1%	8.2%
30	CCN(CCCNC(=O)c1cc(Nc2ccc(OC)cc2)nc2ccccc12)c1cccc(C)c1	24.3%	?	-0.5%[46.1 µM]	?	.	.	.	-3.6%

Limited to Cruzain inh Det, Cruzain inh noDet and SARS PLpro yeast, for some of the entries so far:
nr	mol	Cruzain inh Det	Cruzain inh noDet	SARS PLpro yeast
29	c1cn2cc(CN3CCOCC3)nc2s1	8.2%	-0.8%	-6.9%
30	CCN(CCCNC(=O)c1cc(Nc2ccc(OC)cc2)nc2ccccc12)c1cccc(C)c1	-3.6%	?	.

New compounds follow
no.	canonical_smiles	StopGo reporter	Cruzain inh noDet	LASV entry inh	Marburg entry inh	SARS PLpro yeast	NS1 function inh	RE007 growth inh	Cruzain inh Det
31	COCC(C)n1c(SCC(=O)c2cc(C)n(C)c2C)nc2ccccc2c1=O (configuration not stated)	?	.	.	?	-0.2%	.	13.6%	.
32	Cc1ccc(N/C=C/C(=O)c2ccc(C)cc2)cc1	3.6%	?	-28.1%	?	10.2%	-10.8%	-16.3%	-1.4%
33	CS(=O)(=O)N(CC(=O)Nc1c(F)cccc1F)c1cccc([N+](=O)[O-])c1	-11.3%	-4.6%	1.4%	-4.2%	5.6%	1.9%	-9.2%	-1.6%
34	O=C(CN1C(=O)CC(c2ccco2)Sc2ccccc21)Nc1cccc(C(F)(F)F)c1 (configuration not stated)	0.0%	-10.3%	.	?	.	.	.	-7.3%

Molecules shown so far with four or more nitrogen atoms:
no.	canonical_smiles	StopGo reporter	Cruzain inh noDet	LASV entry inh	Marburg entry inh	SARS PLpro yeast	NS1 function inh	RE007 growth inh	Cruzain inh Det
2	CC(C)C[C@H](NC(=O)c1[nH]cnc1C(=O)N[C@@H](C)c1ccccc1)C(=O)OCc1ccccc1	?	.	.	.	-0.3%	16.3%	7.5%	.
5	Cn1nc2c3ccccc3n(Cc3ccccc3)c2nc1=S	12.4%	.	28.1%[46.1 µM]	?	0.8%	-1.8%	1.5%	.
8	CCn1c(O)c(N=NC(=O)CNC(=O)Cc2ccccc2)c2ccccc21	-2.2%	.	10.5%[46.1 µM]	0.3%[46.1 µM]	-0.4%	-8.2%	12.7%	.
10	N/C(=N\OCC(=O)Nc1ccccc1)c1nonc1N	17.5%	5.6%	4.2%	8.7%	-12.1%	8.5%	-2.8%	-2.0%
12	CCCCCn1c(=O)[nH]c2cc(C(=O)NCCN3CCC(C)CC3)ccc2c1=O	-26.4%	.	?	0.4%[46.1 µM]	-4.8%	-18.8%	-3.5%	.
16	CN(C)CCCNCCCNC(=O)c1ccccn1	-10.4%	3.6%	4.1%	-0.5%	1.6%	0.6%	-1.5%	1.3%
17	Oc1[nH]c2ccccc2c1N=Nc1nc(Nc2ccccc2)nc(N2CCOCC2)n1	?	.	.	.	1.0%	5.4%	-11.9%	.
27	Cc1ccc(C(=O)N/C(=C/c2ccco2)C(=O)NCCCn2ccnc2)cc1	55.0%[activator]	12.6%	-14.4%	-9.3%	12.6%	21.4%	-17.0%	-4.5%
30	CCN(CCCNC(=O)c1cc(Nc2ccc(OC)cc2)nc2ccccc12)c1cccc(C)c1	24.3%	?	-0.5%[46.1 µM]	?	.	.	.	-3.6%

Random draw from the library. About 4.5% of those tested had a hit in this group.
